HSD17B inh: qHTS Assay for Inhibitors of HSD17B4, hydroxysteroid (17-beta) dehydrogenase 4. recombinant HSD17B10, NADH fluorescence kinetic; many of its hits are not listed in these tables. Potency, µM (doses to about 57.1 µM), for inactives: at the highest dose activity change, negative = inhibition, actives largely listed as inhibitors. 75,000 tested, 7.6% active. AID 893, 2007; active means well fitted inhibition curve with a large enough effect; inconclusive means small, poorly fitted or top-dose-only effect; inactive means no such curve, though single readings can be large or run the other way;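 further: the protocol describes HADH2 (HSD17B10) and not the HSD17B4 of the title; nearly all actives have a fitted effect of over 70% in size; most hits overshoot -100% by far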
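Enzyme plus compound, 15 min room temperature; substrate mix added (NAD+ 1 mM, beta-hydroxybutyryl-CoA 90 uM final); plates read kinetically for NADH fluorescence. HADH2 was His-tagged, E. coli-derived, 20 nM.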
Starred values were filed as active, the others as inactive; ? = inconclusive; & = joins results of further samples; [ ] = another dose, or the depositor's remark. On the % scale 0 is the no-effect control and ±100 the full control effect; potency means the concentration at half of the fitted maximal effect. An excerpt, so the mix of outcomes need not match the whole.

| structure | HSD17B inh |
| --- | --- |
| O=C1c2ccccc2C(=O)N1c1ccc(Cc2ccc(N3C(=O)c4ccccc4C3=O)cc2)cc1 | 5.8%[11.4 µM] |
| CN(C)Cc1cc(Cl)c(O)c(CN(C)C)c1 | -0.3%[11.4 µM] |
| CC(C)(C)n1nnnc1CN1C2CCC1CC(NC(=O)Nc1ccccc1)C2 (centres undefined) | -0.7% |
| O=C(O)c1cc(-c2ccccc2)n(-c2ccccc2C(=O)O)n1 | 2.8% |
| CCCn1c(SCC(=O)Nc2c(CC)cccc2CC)nnc1C(C)C | 61.9%[activator] |
| CCCCc1ccc(Nc2nc(CCC)cc(=O)[nH]2)cc1 | ? |
| COC(=O)c1c(C)[nH]c(C)c1-c1ccccc1Cl | 8.2% |
| CCOc1ccc(N(C(C)C(=O)Nc2ccc(OC)cc2)S(C)(=O)=O)cc1 (centres undefined) | -8.8% |
| CCc1ccc(C2C3=C(CC(C)(C)CC3=O)Nc3c2c(=O)[nH]c2nc(C)nn32)cc1 (centres undefined) | 7.94µM* |
| CCOc1ccc(CN2CCN(c3cc(C)nc4c5c(C)cc(C)nc5nn34)CC2)cc1 | 7.94µM* |
| COc1cc2c(cc1OC)C(C(=O)O)C(c1cc(Br)c(O)c(OC)c1)N(C)C2=O (centres undefined) | -5.7% |
| Nc1nonc1-c1noc(CCCN2C(=O)c3ccccc3C2=O)n1 | 11.8% |
| COc1cc2c(cc1OC)Cc1cc(OC)c(OC)cc1Cc1cc(OC)c(OC)cc1C2 | 10.2% |
| COc1ccc2nc3oc(C(=O)N4CCN(c5cccc(Cl)c5)CC4)cc3cc2c1 | -8.8% |
| Cc1ccc(S(=O)(=O)N(CCO)Cc2cc3ccc(C)c(C)c3[nH]c2=O)cc1 | ? |
| Cc1c(C(=O)Nc2ccccc2N2CCOCC2)sc2nc3n(c(=O)c12)CCC3 | 11.1% |
| COc1ccc(-c2nc(N3CCCC3)[nH]c(=O)c2C#N)cc1 | 5.4% |
| COc1ccc(-c2cc(=O)c3c(OC)c(OC)c(OC)c(OC)c3o2)cc1OC | ? |
| CC(=O)c1nnn(-c2nc(N)nc(N(c3ccccc3)c3ccccc3)n2)c1C | -21.0% |
| CCc1nc(SCC(=O)Nc2c(C)n(C)n(-c3ccccc3)c2=O)n[nH]1 | 2.4% |
| CS(=O)(=O)Nc1cccc(-c2cncnc2NCc2cccs2)c1 | -10.2% |
| O=C(Nc1nc2c(s1)CCCC2)c1cccs1 | -6.6% |
| O=C(c1cc(-c2ccccn2)nc2c(Cl)cccc12)N1CCN(C(=O)C2CCCO2)CC1 (centres undefined) | -4.6% |
| O=C(CCNc1ccc(F)cc1)c1ccco1 | 5.9% |
| COc1cc(NC(=O)Cc2ccccc2)ccc1NC(=O)c1ccco1 | -7.8% |
| CC[C@@](N)(C(=O)O)c1ccc(C(=O)O)cc1 | -3.4% |
| Nc1nnc(Cc2ccc(Cl)cc2)s1 | 0.9% |
| O=C(NCC1CCCO1)c1ccc2c(=O)n(CCc3ccccc3)c(=O)[nH]c2c1 (centres undefined) | 3.16µM* |
| O=S1(=O)CCC(NS(=O)(=O)c2cccc3cccnc23)C1 (centres undefined) | 0.9% |
| O=C(/C=C/N1CCOCC1)c1cc2ccccc2o1 | -0.9% |
| CCOC(=O)CNc1nc(-c2ccncc2)nc2ccccc12 | 7.1% |
| COc1cccc(-n2c(C)c(C(C)=O)c(C(C)=O)c2C)c1 | 9.2% |
| CCOC(=O)c1c(C)[nH]c(C(=O)OCc2c(C)noc2C)c1C | -1.8% |
| CCN(C(=O)N(CC)c1ccccc1)c1ccccc1 | 0.1% |
| CCOC(=O)NCC(C)(C)CNC(=O)OCC | 11.1% |
| CCCn1c(SCC(=O)Nc2nnc(CC)s2)nnc1-c1ccco1 | -13.8% |
| COc1ccc(Cn2nnnc2CN2CCC(c3nc4ccccc4s3)CC2)cc1 | -10.4% |
| CN(CCNC(=O)c1cc2c(=O)n(C)c3ccccc3c2n1C)Cc1ccccc1 | ? |
| C=CCOc1ccc(C2c3c(oc4ccccc4c3=O)C(=O)N2c2ccccn2)cc1OCC (centres undefined) | 6.5% |
| COc1ccc(-c2nc(C)c(C(C)=O)n2O)cc1OC | -14.0% |
| O=C(CN1CCN(S(=O)(=O)c2ccc(Br)cc2)CC1)Nc1ccc(F)cc1F | -3.3% |
| Cc1cccc(OCCn2c(=O)n(C)c3ccccc32)c1 | -4.7% |
| COC(=O)N1CCC[C@@]2(CCN(C(=O)Nc3cccc(C#N)c3)C2)C1 | 2.1% |
| COc1ncc2nc(-c3ccccc3)c(=O)n(CCC#N)c2n1 | 25.1µM* |
| CCn1ncc(Br)c1C(=O)Nc1sc2c(c1C(N)=O)CCC2 | 3.16µM* |
| COCCN(CCOC)S(=O)(=O)c1ccc(C(=O)Nc2nc(C)c(C(C)=O)s2)cc1 | -12.9% |
| COc1ccc(C2C(C#N)=C(N)OC(C(C)(C)C)=C2C#N)cc1OC (centres undefined) | -20.6% |
| Cc1nn(CC(=O)Nc2ccc3c(c2)nc(CN2CCCCC2)n3C)c(=O)c2ccccc12 | -9.4% |
| COC(=O)C1=C(N)Oc2cc(C)n(Cc3cccnc3)c(=O)c2C1c1cc(OC)ccc1OC (centres undefined) | 6.4% |
| Cc1cccc(NC(=O)Cn2c(=O)n(Cc3ccco3)c(=N)c3c4c(sc32)COC(C)(C)C4)c1 | 20µM* |

Arranged by heavy-atom count (highest first): some entries from above.
| structure | HSD17B inh |
| --- | --- |
| O=C1c2ccccc2C(=O)N1c1ccc(Cc2ccc(N3C(=O)c4ccccc4C3=O)cc2)cc1 | 5.8%[11.4 µM] |
| C=CCOc1ccc(C2c3c(oc4ccccc4c3=O)C(=O)N2c2ccccn2)cc1OCC (centres undefined) | 6.5% |
| COc1cc2c(cc1OC)Cc1cc(OC)c(OC)cc1Cc1cc(OC)c(OC)cc1C2 | 10.2% |
| CCOc1ccc(CN2CCN(c3cc(C)nc4c5c(C)cc(C)nc5nn34)CC2)cc1 | 7.94µM* |
| COc1ccc(Cn2nnnc2CN2CCC(c3nc4ccccc4s3)CC2)cc1 | -10.4% |
| COc1ccc(-c2cc(=O)c3c(OC)c(OC)c(OC)c(OC)c3o2)cc1OC | ? |
| O=C(CN1CCN(S(=O)(=O)c2ccc(Br)cc2)CC1)Nc1ccc(F)cc1F | -3.3% |
| CCOc1ccc(N(C(C)C(=O)Nc2ccc(OC)cc2)S(C)(=O)=O)cc1 (centres undefined) | -8.8% |
| CCc1nc(SCC(=O)Nc2c(C)n(C)n(-c3ccccc3)c2=O)n[nH]1 | 2.4% |
| CCCn1c(SCC(=O)Nc2nnc(CC)s2)nnc1-c1ccco1 | -13.8% |
| CS(=O)(=O)Nc1cccc(-c2cncnc2NCc2cccs2)c1 | -10.2% |
| O=C(O)c1cc(-c2ccccc2)n(-c2ccccc2C(=O)O)n1 | 2.8% |
| COc1ccc(-c2nc(N3CCCC3)[nH]c(=O)c2C#N)cc1 | 5.4% |
| Cc1cccc(OCCn2c(=O)n(C)c3ccccc32)c1 | -4.7% |
| CCN(C(=O)N(CC)c1ccccc1)c1ccccc1 | 0.1% |
| O=C(/C=C/N1CCOCC1)c1cc2ccccc2o1 | -0.9% |
| COC(=O)c1c(C)[nH]c(C)c1-c1ccccc1Cl | 8.2% |
| CCOC(=O)NCC(C)(C)CNC(=O)OCC | 11.1% |
| CC[C@@](N)(C(=O)O)c1ccc(C(=O)O)cc1 | -3.4% |
| Nc1nnc(Cc2ccc(Cl)cc2)s1 | 0.9% |

The list goes on.
| structure | HSD17B inh |
| --- | --- |
| Cc1oc(-c2cccs2)nc1CS(=O)CC(=O)NC1CCCCCC1 (centres undefined) | 15.8µM* |
| CCn1c(CCn2ccnc2C)n[nH]c1=S | -15.8% |
| C=C(C)CSc1nc2nc(C)cc(C)n2n1 | -13.0% |
| CC(=O)c1cccc(OCCN2C(=O)NC(C)(C)C2=O)c1 | -1.9% |
| COc1ccccc1C1N(c2ccc(Cl)cc2)C(=O)C2CCCN21 (centres undefined) | 10.0% |
| CC1CCCN(S(=O)(=O)c2ccc(NC(=O)Cn3nnc(-c4ccccc4F)n3)cc2)C1 (centres undefined) | 12.4% |
| CCN(CC)CCCC(C)NC(=O)c1ccc(Cc2nc3ccccc3[nH]2)cc1 (centres undefined) | 0.1% |
| CCc1ccc(NC(=O)CC2NCCNC2=O)cc1 (centres undefined) | 12.3% |
| CC(C)N(C(=O)N1CCC(c2nc(-c3ccncc3)no2)CC1)C(C)C | -2.3% |
| CCC(=O)N[C@@H]1CCc2cccc(OC)c2C1 | 9.8% |
| O=c1c2ccccc2nnn1CSc1nnc(-c2cccc(S(=O)(=O)N3CCCCC3)c2)o1 | -5.0% |
| O=C(O)c1ccc2c(c1C(=O)O)C(=O)OC2(c1ccc(O)cc1)c1ccc(O)cc1 | 4.3%[11.4 µM] |
| Cn1nc(OCCOc2ccccc2)ccc1=O | -1.6% |
| Cc1ccc(S(=O)(=O)Nc2ccc(C(=O)Nc3cc(C)on3)cc2)cc1 | -18.3% |
| CCN=C1SC(CC(=O)NC(N)=O)C(=O)N1CC (centres undefined) | -5.4% |
| Cc1cc(C)n(-c2ccc(Cl)c(C(=O)O)n2)n1 | 3.4% |
| COc1ccc(-n2c(=O)c(CCc3ccccc3)nc3cnc(OC)nc32)cc1 | 0.3% |
| Cc1cc(C)nc(Sc2ccc3nnc(C(F)(F)C(F)(F)C(F)(F)F)n3n2)n1 | 1.6% |
| CC1CCC(NC(=O)c2cc3c(s2)CS(=O)(=O)C3)CC1 (centres undefined) | 9.0% |
| O=C(Nc1ccc2c(c1)CCC2)c1cnn2c1NC(c1ccco1)CC2C(F)(F)F (centres undefined) | 12.2% |
| N#Cc1ccc(CSc2nnc(-c3cccc(S(=O)(=O)N4CCCCC4)c3)o2)cc1 | 1.2% |
| O=C(CSc1ncnc2c1oc1ccccc12)Nc1cccc(Cl)c1 | 2.4% |
| COc1cc(NC(=O)c2ccc(Cl)cc2)c(OC)cc1NC(=O)CN1CCOCC1 | -2.7% |
| COc1ccc(CN(Cc2ccccn2)S(=O)(=O)c2ccc(-n3cnnn3)c(OC)c2)cc1 | -9.1% |
| CCSc1nc2c(c(=O)n(C)c(=O)n2C)n1Cc1ccc(Cl)cc1 | -2.6% |
| CNc1nc(C)nc(-c2ccccc2O)n1 | ? |
| CCOC(=O)C1=C(Cn2cnc3ccccc32)NC(=O)NC1c1cc(C)ccc1C (centres undefined) | -8.5% |
| CN1/C(=C/C=N/n2cnnc2)C(C)(C)c2ccccc21 | ? |
| COc1cc(-c2c(C#N)c(N)nc3c2c(C)nn3-c2ccc(C)c(C)c2)cc(OC)c1OC | 31.6µM* |
| N#Cc1ccc(C23CC4(C2)[C@H](CN(Cc2cccnc2)[C@@H]4c2ccccc2)C3c2ccccc2)cc1 (some centres undefined) | -12.0% |
| COc1ccc(CCN(C)CCc2ccc(OC)c(OC)c2)cc1OC | 5.7%&4.1% |
| COC(=O)c1ccccc1NC(=O)c1cc2n(n1)C(C(F)F)CC(C(F)F)N2 (centres undefined) | 0.6% |
| CCOC(=O)CSc1nc(C2CC2)nc2ccccc12 | 2.2% |
| Cc1[nH]c2ccccc2c1C(=O)CN1CCN(C2CCCCC2)CC1 | -1.8% |
| Cc1ccc(S(=O)(=O)N2CCC(C(=O)O)CC2)cc1C(=O)O | 1.7% |
| CCOC(=O)C(C)Sc1nc2ccccc2c(=O)n1CC (centres undefined) | -0.6% |
| CCc1c(C)nc(SCC(=O)CC(=O)OC(C)C)c(C#N)c1C | 493.4%[activator] |
| N#Cc1c(N)c(C(=O)c2ccc(Cl)cc2)n2c1CCC2 | 5.2% |
| O=C(c1ccccc1)c1ccccc1C(=O)N1CCOCC1 | 3.1% |
| CCc1ccc(-c2nnn(Cc3nn[nH]n3)n2)cc1 | -1.4% |
| Cc1onc(-c2ccccc2)c1C(=O)N1CCc2ccccc21 | 3.8% |
| O=C(Nc1ccc(N2CCOCC2)c(Cl)c1)c1cccnc1 | 15.6% |
| COc1ccc(OC)c(CNC(=O)Cc2c(C(=O)O)[nH]c3ccccc23)c1 | 8.6% |
| Cc1cc2nc3c(c(=O)n2[nH]1)CCCC3 | 31.6µM* |
| CCn1c(=N)n(CC(O)COc2cccc(C)c2)c2ccccc21 (centres undefined) | -6.4% |
| COc1ccc(NC(=O)c2ccc(C(=O)c3ccccc3)o2)cc1 | 5.6% |
| COc1ccc(Cn2c(=O)[nH]c3cc(C(=O)NCCCN4CCCC4)ccc3c2=O)cc1 | 31.6µM* |
| COc1ccc(-n2ncc3c(N4CCCc5ccccc54)ncnc32)cc1 | ? |
| CN(C)Cc1cc(C(C)(C)C)c(O)c(C(C)(C)C)c1 | -8.7% |
| Nc1nc(-c2ccc3ccccc3c2)cc(-c2cc(-c3ccc4ccccc4c3)nc(N)n2)n1 | 1.8%[11.4 µM] |

Remaining list, next part:
| structure | HSD17B inh |
| --- | --- |
| CCOc1cccc2c1OC1(C)CC2NC(=O)N1c1cccc(Cl)c1 (centres undefined) | 1.2% |
| O=C(N1CCOCC1)C12CC3CC(C1)CC(C(=O)N1CCOCC1)(C3)C2 | 8.4% |
| CCc1ccccc1N1CC23C=CC(O2)C(C(=O)O)C3C1=O (centres undefined) | 8.5% |
| O=C(NCC1CCCO1)C1CCN(S(=O)(=O)c2cccnc2)CC1 (centres undefined) | 3.6% |

Compound activity (PubChem BioAssay)
